# Vif TR-FRET – inhibitors of Vif binding to APOBEC3G peptide, primary screen, biochemical, TR-FRET, GST-Vif 1-94, biotin-A3G peptide, dose response retest (AID 1117319). Virion infectivity factor (Human immunodeficiency virus type 1 group M subtype B (isolate …. TR-FRET GST-Vif / biotin-A3G peptide binding; higher % means a stronger effect; test concentration not given here; strong numbers were not always called active. one-dose inhibition, %; IC50 in µM for titrated hits. 260,000 compounds, 0.57% hits;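 active means above the screen mean plus three standard deviations and confirmed in dose response; inconclusive means results disagree or hit not tested in dose response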;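 further: Vif residues 1-94 fused to GST binding biotinylated APOBEC3G peptide 110-148; 0% = full assay without inhibitor and 100% = GST in place of GST-Vif; retest series ran down from 100 µM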
# RanGTP-Impb inh – inhibitors of RanGTP-importin-beta interaction, primary screen, biochemical, FRET, CFP-Ran, YFP-importin-beta, homogeneous. Ran GTPase (GTP-bound) - importin-beta complex. cell-free CFP-Ran/YFP-importin-beta FRET ratio. inhibition, % (no concentration beside the values). 300,000 compounds, 1.1% hits. AID 2216, 2009;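 active means most replicates above 15%; inconclusive means exactly half above 15%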;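 further: 0% = DMSO wells and 100% = Ran loaded with GDP instead of GTP; wells of about 40 µL received 100 nL stock; the first replicate is given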
# Calb FLC – C. albicans growth inhibition with fluconazole, primary screen, CaCi-2 strain, Alamar Blue fluorescence; 300,000 compounds, 0.57% hits; AID 1979, 2009; C. albicans CaCi-2 (fluconazole-resistant clinical isolate) + fluconazole, 48 h; growth inhibition, % (no concentration beside the values);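 active means most replicates above 75%; inconclusive means exactly half above 75%; inactive means most below 75%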;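 further: all wells also contain fluconazole at 8 µg/ml as a sub-toxic cotreatment; 0% = median of DMSO wells and 100% = median of geldanamycin control wells; wells of about 8 µL received 7.5 nL stock; the first replicate is given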
# Beta2AR agonist – beta2AR agonists driving receptor internalization, primary screen, cell-based, FAP fluorogen, flow cytometry | Am2.2-beta2AR cells; reference of the scale not given here | response, % (test concentration not listed) | Beta-2 adrenergic receptor (Homo sapiens), P07550 | AID 504454, 2011 | 340,000 compounds, 0.43% hits;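 active means response above a set limit, near 3 SD of response in nonfluorescent compounds, cut at about 42% in these data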;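 further: stock transfer was 100 nL into about 11 µL; a reference agonist was the positive control; negative values mostly stem from fluorescent compounds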
# Target sequence (P07550 whole entry, looked up): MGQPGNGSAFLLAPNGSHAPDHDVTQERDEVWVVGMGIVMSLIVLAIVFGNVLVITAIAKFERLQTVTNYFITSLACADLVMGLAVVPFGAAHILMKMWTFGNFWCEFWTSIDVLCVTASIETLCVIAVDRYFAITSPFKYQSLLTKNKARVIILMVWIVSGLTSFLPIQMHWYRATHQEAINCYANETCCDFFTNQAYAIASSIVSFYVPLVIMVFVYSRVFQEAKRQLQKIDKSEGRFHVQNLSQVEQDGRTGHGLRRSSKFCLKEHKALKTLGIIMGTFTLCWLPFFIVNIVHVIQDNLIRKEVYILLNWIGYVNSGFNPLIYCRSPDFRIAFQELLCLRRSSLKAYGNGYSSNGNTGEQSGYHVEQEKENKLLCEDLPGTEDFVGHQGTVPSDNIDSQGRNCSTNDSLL
# HNF4A DNA FP – change in binding of human HNF4A to DNA, primary screen, biochemical, fluorescence polarization, FITC-DNA; Hepatocyte nuclear factor 4-alpha (Homo sapiens), P41235; 1 h; activity change, % at 10 µM; 360,000 compounds, 0.3% hits; in the data active means activity change above about 30%, passing the limit was not always enough;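 further: controls were the assay level and a saturating level of protein; the project sought stronger binding though the title names inhibitors; some compounds called inactive have numbers as strong as hits; positive values seem to mean higher polarization but the record does not say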
# Target sequence (P41235 whole entry, looked up): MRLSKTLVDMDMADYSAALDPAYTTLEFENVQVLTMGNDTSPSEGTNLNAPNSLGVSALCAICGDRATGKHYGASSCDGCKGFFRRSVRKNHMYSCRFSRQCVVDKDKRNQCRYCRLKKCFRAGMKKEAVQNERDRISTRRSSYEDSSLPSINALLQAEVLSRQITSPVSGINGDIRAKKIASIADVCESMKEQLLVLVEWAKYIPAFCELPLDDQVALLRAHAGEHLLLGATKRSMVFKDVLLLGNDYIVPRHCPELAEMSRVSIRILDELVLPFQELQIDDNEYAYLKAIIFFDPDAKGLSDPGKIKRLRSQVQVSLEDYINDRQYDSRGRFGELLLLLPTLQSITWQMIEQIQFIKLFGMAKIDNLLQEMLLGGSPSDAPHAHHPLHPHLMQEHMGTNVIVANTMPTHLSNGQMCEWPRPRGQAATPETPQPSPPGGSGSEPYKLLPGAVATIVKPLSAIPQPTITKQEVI
# LANA-H2B inh – blockers of LANA interaction with H2A/H2B – biochemical, FP readout, HTS, primary screen | inhibition, % (concentration not given with the values) | cell-free LANA-H2A/H2B peptide, fluorescence polarization | Protein LANA1 (Human herpesvirus 8 type P (isolate GK18)), Q9QR71 | 320,000 compounds, 0.6% hits; in the data active means inhibition mostly above about 10%, no sharp cut-off; inactive means mostly below about 6.7%;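 further: stock transfer was 7.5 nL into about 10 µL; 0% = median of vehicle wells and 100% = median of positive control wells; one replicate is shown; the record names a cut of 25% in any replicate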
# ALR H2O2 inh – inhibitors of human ALR sulfhydryl oxidase, primary screen, biochemical, H2O2 detection, HRP-luminol luminescence, single point | FAD-linked sulfhydryl oxidase ALR (Homo sapiens), P55789 | purified ALR, DTT oxidation | inhibition, % (test concentration not listed) | 290,000 compounds, 3.8% hits;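 active means mean and each replicate at 75% or more; inconclusive means only one of the two met; inactive means neither met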;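 further: stock transfer was 7.5 nL into about 7.5 µL; 0% = neutral wells and 100% = wells with inactivated enzyme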
# Target sequence (P55789 whole entry, looked up): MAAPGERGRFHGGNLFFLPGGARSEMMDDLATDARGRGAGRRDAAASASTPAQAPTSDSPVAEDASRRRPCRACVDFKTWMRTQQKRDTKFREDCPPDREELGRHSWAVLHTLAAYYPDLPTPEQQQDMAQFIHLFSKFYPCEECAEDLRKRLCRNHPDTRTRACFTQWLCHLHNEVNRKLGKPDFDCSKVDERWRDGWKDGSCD
# * hit, by the source's call; ? = inconclusive; / = no result given; & = joins results of further samples. An unsorted share of the library (roughly 6.3% active in at least one column).
SMILES,Vif TR-FRET,RanGTP-Impb inh,Calb FLC,Beta2AR agonist,HNF4A DNA FP,LANA-H2B inh,ALR H2O2 inh
Cn1cnc([N+](=O)[O-])c1Oc1cccc(O)c1,8%,-1.1,-10,0,5.7,-8.1,-12
COc1ccc(Nc2nc(Nc3ccc(OC)cc3OC)nc(N3CCN(C)CC3)n2)c(OC)c1,5%,0.2,6,38,-1.6,/,/
COc1cccc(N2C(=O)CC(N3CCN(CCN=CC4=C(O)CC(C)(C)CC4=O)CC3)C2=O)c1 (centres undefined),10%,2.3,-3,6,0.1,0.7,4
Cc1cc(N/N=C/c2cccc(Cl)c2)nc(-n2nc(C)cc2C)n1,8%,-1.1,-12,7,1.9,-2.2,-15
Cc1sc2ncnc(SCC(=O)N3CCOCC3)c2c1C,-4%,/,/,-2,-3.8,/,-8
CN(C(=O)CSc1nnc(NC2CCCCC2)s1)C1CCS(=O)(=O)C1 (centres undefined),-1%,3.3,-12,3,4.2,-1.6,3
COCC1CCN(C(=O)C2CCC(=O)N(C3CCCC3)C2)CC1 (centres undefined),/,1.4,-8,2,-1.3,4.5,-3
Cc1cc(C)nc(NS(=O)(=O)c2ccc(N)cc2)n1,7%,-0.9,/,-5,1.5,-1.2&-3.0,-2&-1
COc1cccc(/C=N/NC(=O)CCCc2ccc(OC)c(C)c2)c1,-3%,-1.2,0,0,-3.8,2.7,-2
CCOc1ccc(C(=O)N2CCN(C(=O)c3ccco3)CC2)cc1OCC,3%,3.8,-3,1,-5.4,1.0,3
CCCCCCSc1ccc([C@H]2N[C@@](CC(C)C)(C(=O)OC)[C@H]3C(=O)N(C)C(=O)[C@@H]23)cc1,/,-4.2,-2,4,-2.8,-4.3,0
COc1ccc(N(CC(=O)NCCC2=CCCCC2)S(=O)(=O)c2c(C)[nH]c(=O)[nH]c2=O)cc1,?,1.6,24,1,-4.2,5.2,-6
Cc1cc(=O)oc2c3c(ccc12)OC/C3=N/N,-5%,-0.3,1,-3,-8.3,3.4,-3
Cc1ccc(-n2nnnc2SCC(=O)NNC(=O)c2ccco2)c(C)c1,5%,-1.9,-1,5,5.6,0.5,-7
COc1ccc(CCNC(=O)C(NC(=O)OCc2ccccc2)C(C)C)cc1OC (centres undefined),-8%,-0.4,-2,2,2.9,2.5,4

# 4 compounds out of the list above, arranged by the value under Vif TR-FRET, falling.
Structure	Vif TR-FRET	RanGTP-Impb inh	Beta2AR agonist	LANA-H2B inh	ALR H2O2 inh
Cn1cnc([N+](=O)[O-])c1Oc1cccc(O)c1	8%	-1.1	0	-8.1	-12
COc1ccc(Nc2nc(Nc3ccc(OC)cc3OC)nc(N3CCN(C)CC3)n2)c(OC)c1	5%	0.2	38	/	/
CN(C(=O)CSc1nnc(NC2CCCCC2)s1)C1CCS(=O)(=O)C1 (centres undefined)	-1%	3.3	3	-1.6	3
Cc1cc(=O)oc2c3c(ccc12)OC/C3=N/N	-5%	-0.3	-3	3.4	-3

# New compounds follow.
SMILES,Vif TR-FRET,RanGTP-Impb inh,Calb FLC,Beta2AR agonist,HNF4A DNA FP,LANA-H2B inh,ALR H2O2 inh
COc1ccc2oc(C(=O)OC(C)C(=O)NC3(C#N)CCCCC3)c(C)c2c1 (centres undefined),-4%,2.9,-9,6,0.2,2.3,/
O=C(NCc1ccc2c(c1)OCO2)c1ccc(Br)cc1,/,?,-7,-7,3.6,2.7,-3
Cc1ccc(Cn2c(SCC(=O)Nc3cc(C)on3)nc3ccccc3c2=O)cc1,-16%,?,-6,-6,-3.1,0.1,-11
COc1cccc(N2CC(C)Cn3c2nc2c3c(=O)n(CCN3CCOCC3)c(=O)n2C)c1 (centres undefined),4%,-0.7,-15,-16,-1.3,-0.6,5
COc1ccc(NC(C#N)c2ccccc2OCc2ccccc2)cc1 (centres undefined),16%,-1.7,2,2,-1.5,-2.2,-9
CCn1c(C)nc2cc(C(=O)N/N=C/c3ccc(O)cc3)ccc21,/,1.4,-3,-2,0.2,1.3,99*
CCOc1cc(-n2nc(C)c(C#N)c2N)nc(SC)n1,-2%,-0.7,-5,/,/,/,/
CCCN(C(=O)c1cnccn1)c1c(N)n(Cc2ccccc2)c(=O)[nH]c1=O,/,/,/,14,5.8,-17,/
O=C(NCc1cccnc1)C(=O)NCC1OCCN1S(=O)(=O)c1ccc(F)cc1 (centres undefined),/,-0.2,-1,14,0.8,2.0,-2
CCOc1ccc(NC(=O)CC2C(=O)Nc3ccccc3N2C(=O)c2ccccc2)cc1 (centres undefined),/,1.4,6,-6,-2.2,0.7,-1
COc1ccc(OC)c(-c2csc(N(Cc3ccco3)C(=O)c3ccco3)n2)c1,/,-3.0,-2,10,-1.3,-3.2,-6
O=C(NCCc1csc(-c2ccccc2)n1)c1c(F)cccc1Cl,-2%,-3.2,0,8,2.0,1.0,6
CC(C)(C)c1cc(CCC(=O)NNC(=S)NC(=O)c2ccccc2)cc(C(C)(C)C)c1O,-3%,?,71,16,0.9,0.3,22
O=C(NCCC1=CCCCC1)C1CCCN(S(=O)(=O)c2cccnc2)C1 (centres undefined),3%,-3.2,5,-3,-1.4,5.4,/
COc1ccc(N2CCN(C(=O)CSc3nnc4nc(C)cc(C)n34)CC2)cc1,-6%,0.6,1,-16,0.0,-0.3,71
c1nnc2c3c4c(sc3ncn12)CCCC4,?,7.1,3,/,/,/,/
Cc1cc(=O)[nH]c(SCC(=O)C23CC4CC(CC(C4)C2)C3)c1C#N,6%,0.2,24,5,-1.4,-5.7,-1
CCOC(=O)c1c(CN2CCN(CC#N)CC2)n(C)c2cc(Br)c(OC)cc12,-3%,2.4,0,9,-0.2,-1.5,-13
O=C(Nc1cc(S(=O)(=O)N2CCCCC2)ccc1Cl)c1ccccc1NS(=O)(=O)c1ccc(F)cc1,/,-3.2,?,23,-1.9,-7.2,-5
COc1ccc(S(=O)(=O)N(CCc2ccccc2)CC(=O)N2CCOCC2)cc1,0%,-1.4,-5,0,-8.8,-9.2,99*
COc1cc(CN(C2CCCCC2C)S(=O)(=O)c2ccc(S(=O)(=O)NC3CC3)cc2)cc(OC)c1OC (centres undefined),15%,5.1,14,9,-1.6,0.2,/
COc1ccc(C(=O)COC(=O)c2cncc(Br)c2)cc1,-86%,/,/,6,0.8,1.8,1
Cc1ccc(NC(=O)C2CC(=O)N(CCc3ccccc3)C2)cc1Cl (centres undefined),/,/,/,-4,-0.5,-4.0,1
Cc1cc(=O)[nH]c(SCC(=O)N2CCN(C(c3ccccc3)c3ccccc3)CC2)n1,-4%,3.3,10,9,-1.0,1.6,1
CN(CC(=O)NCc1ccncc1)S(=O)(=O)c1ccc(Br)cc1,/,-1.7,3,0,-0.9,0.3,-2
COc1ccc(S(=O)(=O)N2CCC(C(=O)Nc3nccs3)CC2)cc1,-13%,4.7,-11,-13,3.3,5.4,2
CC1CCN(C(=O)COC(=O)c2cccc(S(=O)(=O)N(C)c3ccccc3)c2)CC1,-7%,/,/,-10,1.5,-0.6,-3
O=C(O)C1CC1c1ccc(Br)cc1 (centres undefined),15%,-0.1,21,4,-0.7,2.5,-9
COc1cc(C(CCN2CCN(c3ccccc3)CC2)c2c(OC)cc(OC)c3c(C)cc(=O)oc23)cc(OC)c1OC (centres undefined),1%,0.0,-4,9,-5.1,-0.5,-52
CC1CCC(NC(=O)C2CCN(S(=O)(=O)c3cccc4nonc34)CC2)CC1 (centres undefined),-2%,-5.4,-12,2,-1.1,3.8,-11
O=C(CNC(=O)C(c1ccccc1)c1ccccc1)N/N=C/c1ccc(O)cc1O,-4%,5.0,0,10,-6.6,2.1,/
NCCCC[C@@H](C(=O)N1CCNCC1)n1cc([C@@H](N)CO)nn1,4%,-1.5,-4,-1,-1.5,5.0,-9
COc1ccc(S(=O)(=O)NCCCn2ccnc2)cc1Cl,/,-0.3,-7,-3,5.6,1.6,-2
Nc1cc(N)nc(SCc2ccc(Cl)cc2)n1,/,2.0,13,-3,3.1,0.1,-9
O=C(Nc1ccc(S(=O)(=O)Nc2nccs2)cc1)c1ccc(F)cc1,-11%,0.8,-12,3,-0.3,-2.6,-5
OCCN1CCN(c2ncnc3c2sc2nc(N4CCOCC4)c4c(c23)CCC4)CC1,?,0.1,5,18,4.9,3.0,-2
Cc1ccccc1-c1nnn(CC(=O)Nc2ccc3c(c2)OCCO3)n1,23%,1.3,-8,-8,2.8,-2.3,-9
CC1(c2ccc(Cl)cc2)NC(=S)N2C1NC(=S)N2c1ccccc1 (centres undefined),?,0.2,-20,-3,1.8,4.2,-16
O=C(CN1C(=O)NC2(CCCCC2)C1=O)NCCCSc1ccccc1,-4%,/,/,5,2.0,-7.1,1
Cc1ccc2c(c1)C1CN(C)CCC1N2C(=O)c1ccccc1NS(=O)(=O)c1ccc(F)cc1C (centres undefined),0%,0.5,2,0,0.7,2.3,-12
COC(=O)CCC(=O)OC1(C)C(=O)C2=CN(CCc3ccccn3)C(c3ccc(OC)cc3)=CC2=C(Br)C1=O (centres undefined),/,0.2,11,4,-3.0,0.7,/
C[C@@H]1CN([C@H](C)CO)C(=O)c2cc(NC(=O)Nc3ccc(C(F)(F)F)cc3)ccc2O[C@H]1CN(C)S(=O)(=O)c1cccs1,/,/,/,8,1.2,1.7,-2
COc1ccc(CCNC(=O)c2cc(S(=O)(=O)N(C)C)ccc2N2CCCC2)cc1OC,-1%,11,8,-3,-1.8,-4.2,-4
COc1ccccc1N1CCN(CC(=O)N2CCCC2)CC1,-3%,-1.6,-8,9,-3.9,5.1,54
CN(CC(=O)Nc1ccccc1Cl)C(=O)COC(=O)C1CCN(c2ccc(C(F)(F)F)cn2)CC1,2%,/,3,7,-0.5,-4.2,5
O=C1CC2CS(=O)(=O)CC2N1C1CCCCC1 (centres undefined),-1%,12,-9,-2,3.3,3.3,/
Cc1ccc(S(=O)(=O)N2CCCCC2)cc1C(=O)N(C)CC(=O)Nc1cccc(F)c1,5%,-1.6,1,-6,1.3,2.5,-11
Cc1nc(N2CCCCC2)nc(N2CCCCC2)c1C=O,-42%,-1.5,-11,7,10,-4.0,0
O=S(=O)(NCC(c1cccnc1)N1CCOCC1)c1cccs1 (centres undefined),-1%,4.6,4,-2,3.1,4.8,-3
CCNC(=O)C(=O)NCC(c1cccs1)S(=O)(=O)c1ccc(C)cc1 (centres undefined),/,2.4,1,-5,1.8,1.5,0
COc1ccc(CN(Cc2ccc(C(=O)O)cc2)C(=S)Nc2ccc(C)cc2)cc1OC,-4%,4.8,10,7,4.9,6.9,9

# An excerpt from above in order of molecular weight, lowest first.
SMILES,Vif TR-FRET,RanGTP-Impb inh,Calb FLC,Beta2AR agonist,HNF4A DNA FP,LANA-H2B inh,ALR H2O2 inh
O=C1CC2CS(=O)(=O)CC2N1C1CCCCC1 (centres undefined),-1%,12,-9,-2,3.3,3.3,/
O=S(=O)(NCC(c1cccnc1)N1CCOCC1)c1cccs1 (centres undefined),-1%,4.6,4,-2,3.1,4.8,-3
CCNC(=O)C(=O)NCC(c1cccs1)S(=O)(=O)c1ccc(C)cc1 (centres undefined),/,2.4,1,-5,1.8,1.5,0

# Assay outcomes from PubChem BioAssay.
